# FGF22 binding – FGF22 (human) thermal shift binding; Q9HCT0; recombinant FGF22 thermal shift, SYPRO orange fluorescence; percent of sucrose octasulfate shift, DMSO zero; calls only at 9.99 µM; 340,000 compounds, 1.5% hits; AID 651658;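 active = melting point raised past a set limit in the mean and every replicate; three in four hits are not shown here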
# Target sequence (Q9HCT0 whole entry, looked up): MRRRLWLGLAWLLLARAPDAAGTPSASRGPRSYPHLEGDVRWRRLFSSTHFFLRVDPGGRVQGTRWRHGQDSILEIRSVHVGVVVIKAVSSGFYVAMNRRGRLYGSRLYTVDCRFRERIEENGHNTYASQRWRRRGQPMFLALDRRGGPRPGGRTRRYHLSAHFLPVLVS
# E coli growth – inhibitors of Escherichia coli growth | OD600, 23 h; hits give low values | OD600 absorbance (concentration not given with the values) | 330,000 compounds, 0.21% hits;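 active = OD600 absorbance below the run mean of sample wells minus 3.6 SD, in any replicate, cut at about 0.56 in these data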;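 also: stock transfer was 300 nL into about 60 µL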
# Ecoli rRNA inh – inhibits bacterial ribosomal RNA function over humanized ribosomes | GFP signal change (wild-type ribosome), % (no concentration beside the values) | E. coli WT GFP vs humanized-ribosome RFP mutants, fluorescence, 24 h; hits give low values; DMSO median 0, no signal -100 | 350,000 compounds, 1.6% hits;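 active = significant combined selectivity score with lowered wild-type GFP, culture density cut under 30%, mutant RFP and density less affected; inactive = any of these conditions unmet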; also: one replicate is shown; some compounds called inactive have numbers as strong as hits
# UCH37 DUB inh – blocks the human deubiquitinase UCH37 | Q9Y5K5 | purified proteasome/UCH37, Ub-AMC cleavage fluorescence | 330,000 compounds, 0.33% hits | AID 588478 | inhibition, % (test concentration not listed);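 active = mean of two replicates above 20%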;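 also: 0% = compound-free wells with enzyme and 100% = wells lacking proteasome; stock transfer was 100 nL into about 20 µL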
# Target sequence (Q9Y5K5 whole entry, looked up): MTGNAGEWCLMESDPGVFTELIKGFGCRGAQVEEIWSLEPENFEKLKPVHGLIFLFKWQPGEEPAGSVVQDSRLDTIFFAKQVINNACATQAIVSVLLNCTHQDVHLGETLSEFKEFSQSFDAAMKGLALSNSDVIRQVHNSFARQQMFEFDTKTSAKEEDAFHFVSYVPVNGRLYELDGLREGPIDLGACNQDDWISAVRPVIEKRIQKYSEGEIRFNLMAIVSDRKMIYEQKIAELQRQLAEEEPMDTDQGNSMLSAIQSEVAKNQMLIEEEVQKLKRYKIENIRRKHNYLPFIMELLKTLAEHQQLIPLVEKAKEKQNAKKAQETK
#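 Schedule: 30 min plus 25 min, room temperature / Material: human UCH37 within purified proteasomes / Technique: AMC fluorescence intensity at 355/460 nm / Buffer or medium: pH 7.4 Tris-HCl (50 mM) with ovalbumin, ATP-MgCl2, DTT / Controls: wells without proteasome as full block, compound-free enzyme plus substrate as uninhibited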
# Ecoli rRNA inh OD600 – also measured in Ecoli rRNA inh; calls as there; OD600 change, %; measured here: OD600 growth;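 optical density of the mix in the first replicate; 0 = DMSO median and -100 = no signal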
# Ecoli rRNA inh RFP – recorded beside Ecoli rRNA inh, whose call it bears; RFP signal change, %; measured here: RFP humanized mutant strains;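 first replicate; 0 = DMSO median and -100 = no signal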
# * hit, by the source's call; i = inactive; nt = not tested or not shown; + = active, no number; & = joins results of further samples. The list is partial. The share of hits here may be higher or lower than overall.
SMILES,FGF22 binding,E coli growth,Ecoli rRNA inh,Ecoli rRNA inh OD600,Ecoli rRNA inh RFP,UCH37 DUB inh
CC=Cc1ccc2n(c1=O)C[C@H]1[C@H](CO)[C@@H](C(=O)OC)[C@@H]2N1CC1CC1 (mixture of isomers),i,nt,2,-3,-3.6,nt
CC=Cc1ccc2n(c1=O)C[C@@H]1[C@@H](CO)[C@H](C(=O)OC)[C@H]2N1C(=O)CC1CC1 (mixture of isomers),i,nt,-1,-1,-1.9,nt
COC(=O)[C@@H]1[C@@H](CO)[C@@H]2Cn3c(ccc(-c4ccccc4)c3=O)[C@H]1N2S(=O)(=O)c1ccccc1C,i,nt,-4,-5,2.3,nt
O=C(Cc1cccnc1)N1CCCCN2[C@@H](CO)[C@@H](c3ccc(C#CC4CCCC4)cc3)[C@@H]2C1,i,nt,-44,-66,-9.4,nt
COc1ccc(C#Cc2ccc([C@@H]3[C@H]4CN(C(=O)Cc5ccncc5)CCCCN4[C@H]3CO)cc2)cc1,i,nt,-18,-49,28,nt
CCCC#Cc1ccc([C@@H]2[C@@H](CO)N3CCCCN(C(=O)Cc4ccccn4)C[C@@H]23)cc1,i,nt,7,-15,7.4,nt
COC(=O)[C@H]1[C@H](CO)[C@H]2Cn3c(ccc(-c4ccccc4F)c3=O)[C@@H]1N2Cc1cccnc1,i,nt,-2,-4,5.4,nt
C[C@H](CO)N1C[C@H](C)[C@H](CN(C)C(=O)Oc2ccc3ccccc3c2)OCc2cn(nn2)CCCC1=O,i,nt,-6,-6,0.9,nt
O=C(Cc1cccnc1)N1CCCCN2[C@H](CO)[C@H](c3ccc(C#CC4CCCC4)cc3)[C@@H]2C1,i,nt,-57,-79,-12,nt
COc1ccc(OC(=O)N(C)C[C@H]2OCc3ccccc3-c3c(n(C)c4ccccc34)C(=O)N([C@H](C)CO)C[C@@H]2C)cc1,i,nt,0,-8,0.7,nt
COC(=O)[C@@H]1[C@@H](CO)[C@@H]2Cn3c(ccc(-c4cccc(F)c4)c3=O)[C@H]1N2Cc1cccnc1,i,nt,0,-4,-2.6,nt
COC(=O)[C@@H]1[C@@H](CO)[C@@H]2Cn3c(ccc(-c4ccc(F)cc4)c3=O)[C@H]1N2C(C)=O,i,nt,-2,-1,-2.0,nt
O=C(Cc1ccccc1)N1CCCCN2[C@@H](CO)[C@H](c3ccc(-c4ccccc4)cc3)[C@@H]2C1,i,nt,-59,-77,-14,nt
C/C=C/c1ccc(C2[C@H]3CNC[C@@H]2N3Cc2ccccn2)cc1 (some centres undefined),i,nt,9&0,16&3,-1.5&0.7,nt
C=CC1C[N+]2(C)CCC1CC2C(O)c1ccnc2ccccc12 (centres undefined),i,nt,-6,-5,-1.3,nt
O=C(Cc1cccnc1)N1CCCCN2[C@H](CO)[C@H](c3ccc(/C=C/c4ccccc4)cc3)[C@@H]2C1,i,nt,-46,-70,-3.9,nt
O=C(Cc1ccccn1)N1CCCCN2[C@H](CO)[C@@H](c3ccc(C#Cc4ccccc4)cc3)[C@@H]2C1,i,nt,-59,-74,-7.5,nt
COc1ccc(OC(=O)N(C)C[C@H]2OCc3cnnn3CCCC(=O)N([C@@H](C)CO)C[C@@H]2C)cc1,i,nt,4&1,5&2,0.9&-2.0,nt
CC(C)NC(=O)N1[C@@H]2c3ccc(-c4cccc(C(=O)N(C)C)c4)c(=O)n3C[C@H]1[C@H](CO)[C@H]2C(=O)O,i,nt,2,5,-1.9,nt
CCCC#Cc1ccc([C@@H]2[C@@H](CO)N3CCCCN(C(=O)Cc4ccccn4)C[C@H]23)cc1,i,nt,3,-16,8.5,nt
COC(=O)[C@@H]1[C@@H](CO)[C@@H]2Cn3c(ccc(C4=CCCC4)c3=O)[C@H]1N2C(=O)CC1CC1,i,nt,2,6,1.8,nt
O=C(NC1CCCCC1)N1Cc2ccc(Br)cc2-n2nncc2C1,i,nt,-22,-24,0.1,nt
COc1cccc(-c2ccc([C@H]3[C@H](CO)N4CCCCN(C(=O)Cc5ccncc5)C[C@@H]34)cc2)c1,i,nt,-7,-5,0.3,nt
CCC(=O)N1[C@@H]2c3ccc(-c4ccc(F)cc4)c(=O)n3C[C@H]1[C@H](CO)[C@H]2C(=O)OC,i,nt,1,2,0.8,nt
CC[C@]12CCN(CC3(O)CC3)[C@H](Cc3ccc(O)cc31)C2(C)C,i,nt,8,4,1.9,nt

# An excerpt from the list above:
SMILES,FGF22 binding,E coli growth,Ecoli rRNA inh,Ecoli rRNA inh OD600,Ecoli rRNA inh RFP,UCH37 DUB inh
COC(=O)[C@@H]1[C@@H](CO)[C@@H]2Cn3c(ccc(-c4ccccc4)c3=O)[C@H]1N2S(=O)(=O)c1ccccc1C,i,nt,-4,-5,2.3,nt
O=C(Cc1cccnc1)N1CCCCN2[C@@H](CO)[C@@H](c3ccc(C#CC4CCCC4)cc3)[C@@H]2C1,i,nt,-44,-66,-9.4,nt
COc1ccc(C#Cc2ccc([C@@H]3[C@H]4CN(C(=O)Cc5ccncc5)CCCCN4[C@H]3CO)cc2)cc1,i,nt,-18,-49,28,nt

# Carrying on:
SMILES,FGF22 binding,E coli growth,Ecoli rRNA inh,Ecoli rRNA inh OD600,Ecoli rRNA inh RFP,UCH37 DUB inh
CCCNC(=O)N1[C@@H]2c3ccc(-c4ccccc4OC)c(=O)n3C[C@H]1[C@H](CO)[C@H]2C(=O)O,i,nt,2,3,0.7,nt
COc1ccc(-c2ccc([C@H]3[C@@H](CO)N4CCCCN(C(=O)Cc5ccccc5)C[C@@H]34)cc2)cc1,i,nt,-13,-14,14,nt
COC(=O)C[C@@H]1CC[C@@H]2NC[C@@H](O)COC[C@H]2O1,i,nt,1,4,-8.7,nt
C[C@H]1CN([C@@H](C)CO)C(=O)CCCn2cc(nn2)CO[C@H]1CN(C)C(=O)Oc1ccc2ccccc2c1,i,nt,-3,-10,0.4,nt
COC(=O)[C@@H]1[C@@H](CO)[C@@H]2Cn3c(ccc(-c4ccc(F)cc4)c3=O)[C@H]1N2C(=O)c1ccccc1F,i,nt,-3,-7,-1.8,nt
CC(C)CC#Cc1ccc([C@@H]2[C@@H](CO)N3CCCCN(C(=O)Cc4ccccn4)C[C@@H]23)cc1,i,nt,-44,-65,-1.7,nt
O=C(O)[C@@H]1[C@@H](CO)[C@@H]2Cn3c(ccc(-c4cccnc4)c3=O)[C@H]1N2C(=O)Nc1cc(F)ccc1F,i,nt,-2,0,-1.1,nt
COC(=O)[C@@H]1[C@@H](CO)[C@@H]2Cn3c(cccc3=O)[C@@H]2N1CC1CC1,i,nt,2,7,-0.5,nt
O=C(Cc1ccncc1)N1CCCCN2[C@H](CO)[C@H](c3ccc(C#Cc4ccccc4F)cc3)[C@@H]2C1,i,nt,-19,-31,12,nt
O=C(Cc1ccccn1)N1CCCCN2[C@@H](CO)[C@H](c3ccc(C#Cc4ccccc4)cc3)[C@@H]2C1,i,nt,-55,-73,-10,nt
COc1ccc(C#Cc2ccc([C@H]3[C@@H](CO)N4CCCCN(C(=O)Cc5ccncc5)C[C@@H]34)cc2)cc1,i,nt,5,-34,21,nt
C[C@@H]1CN([C@@H](C)CO)C(=O)CCCn2cc(nn2)CO[C@@H]1CN(C)C(=O)Oc1ccc2ccccc2c1,i,nt,-4,-8,-0.9,nt
O=C(Cc1ccccn1)N1CCCCN2[C@H](CO)[C@H](c3ccc(-c4ccccc4)cc3)[C@@H]2C1,i,nt,-3,-1,-1.5,nt
COC(=O)[C@H]1[C@H](CO)[C@H]2Cn3c(ccc(-c4cccnc4)c3=O)[C@@H]1N2CCc1ccccc1,i,nt,-1,-1,-1.7,nt
C/C=C/c1ccc([C@@H]2[C@H](CO)N3CCCCN(C(=O)Cc4cccnc4)C[C@@H]23)cc1,i,nt,1,-1,-3.2,nt
COC(=O)[C@@H]1[C@@H](CO)[C@@H]2Cn3c(ccc(C4=CCCCC4)c3=O)[C@H]1N2CCc1ccccc1,i,nt,-6,-12,8.4,nt
CC=Cc1ccc2n(c1=O)C[C@H]1[C@H](CO)[C@@H](C(=O)OC)[C@@H]2N1C(=O)CC1CC1 (mixture of isomers),i,nt,1,-4,-0.2,nt
COc1ccc(-c2ccc([C@H]3[C@H](CO)N4CCCCN(C(=O)Cc5ccccc5)C[C@@H]34)cc2)cc1,i,nt,-56,-73,-7.4,nt
CCCN1[C@@H]2c3ccc(-c4cccc(C(=O)N(C)C)c4)c(=O)n3C[C@H]1[C@H](CO)[C@H]2C(=O)OC,i,nt,2,-2,-2.7,nt
O=C(O)[C@@H]1[C@@H](CO)[C@@H]2Cn3c(ccc(-c4ccncc4)c3=O)[C@H]1N2C(=O)C1CCC1,i,nt,-1,-16,3.9,nt
COC(=O)[C@H]1[C@H](CO)[C@H]2Cn3c(ccc(-c4cncnc4)c3=O)[C@@H]1N2S(=O)(=O)c1ccccc1C,i,nt,3,1,-1.8,nt
O=C(O)C[C@@H]1CC[C@H]2NC[C@@H](O)COC[C@@H]2O1,i,nt,6,5,-0.5,nt
O=C(NCCN1CCC2(CC1)C(=O)NCN2c1ccccc1)c1ccc(OC(F)(F)F)cc1,i,nt,-1,1,6.2,nt
O=C(Cc1ccccn1)N1CCCCN2[C@H](CO)[C@H](c3ccc(-c4ccc(F)cc4)cc3)[C@H]2C1,i,nt,1,17,-0.1,nt
CC=Cc1ccc2n(c1=O)C[C@@H]1[C@@H](CO)[C@H](C(=O)O)[C@H]2N1S(=O)(=O)c1ccccc1F (mixture of isomers),i,nt,2,5,0.8,nt
# The listing continues:
SMILES,FGF22 binding,E coli growth,Ecoli rRNA inh,Ecoli rRNA inh OD600,Ecoli rRNA inh RFP,UCH37 DUB inh
C[C@@H]1CNCCN1c1ccc(N2CC[C@@H](O)C2)c(C#N)c1,i,nt,26,5,0.8,nt
COC(=O)[C@H]1[C@H](CO)[C@H]2Cn3c(cccc3=O)[C@@H]1N2CCc1ccccc1,i,nt,-1,0,5.1,nt
COc1cccc(-c2ccc([C@@H]3[C@@H](CO)N4CCCCN(C(=O)Cc5ccncc5)C[C@@H]34)cc2)c1,+,nt,1,0,-1.6,nt
O=C(Cc1ccccn1)N1CC2(C1)[C@@H](c1ccccc1)[C@@H](CO)N2Cc1ccccn1,i,nt,2,5,0.7,nt
CC(C)NC(=O)N1[C@@H]2Cn3c(ccc(-c4cccc(C(=O)N(C)C)c4)c3=O)[C@H]1[C@@H](C(=O)O)[C@@H]2CO,i,nt,3,1,-0.3,nt
NC(=NN=Cc1ccc(O)cc1)N[N+](=O)[O-],nt,0.76,nt,nt,nt,18
CCC(CC(c1ccccc1)c1c(O)c2ccccc2oc1=O)=NNC(N)=S (centres undefined),nt,0.7,nt,nt,nt,-2.1
C[C@H]1CCC[C@@H](O)CCCC=Cc2cc(O)cc(O)c2C(=O)O1,nt,0.71,nt,nt,nt,-0.1
CCn1cc(C=c2sc3n(c2=O)C2c4ccccc4OC(C)(N=3)C2C(=O)OC)c(C)n1 (centres undefined),nt,0.65,nt,nt,nt,11
CN(C)c1ccc(C(=O)NN=CC23CC[C@@H](O)CC2(O)CC[C@@H]2[C@@H]3CCC3(C)C(C4=CC(=O)OC4)CCC23O)cc1 (some centres undefined),nt,0.68,nt,nt,nt,5.3
CC(CC(c1ccccc1)c1c(O)c2ccccc2oc1=O)=NNC(N)=S (centres undefined),nt,0.69,nt,nt,nt,0.8
Nc1nonc1C(=O)NN=Cc1ccc([N+](=O)[O-])o1,nt,0.45*,nt,nt,nt,13
CC1=CC2C=C(C)C(C)C3C(CC(C)C)NC(=O)C23C(=O)C=CC(O)C(O)CC1 (centres undefined),nt,0.76,nt,nt,nt,4.1
NC(N)=NN=Cc1cn(-c2ccccc2)nc1-c1cccs1,nt,0.58,nt,nt,nt,-9.4
NC(N)=NN=Cc1ccc(N2CCOCC2)cc1,nt,0.66,nt,nt,nt,-80
NC(=N[N+](=O)[O-])N1CCN(C(=O)Oc2ccc([N+](=O)[O-])cc2)CC1,nt,0.62,nt,nt,nt,-0.3
CC(C)C12CN3CCN(CC(C3)C1=NO)C2,nt,0.76,nt,nt,nt,5.0
COc1ccc(C=NN=C(N)N)cc1,nt,0.63,nt,nt,nt,1.9
COC(=O)C1C2c3ccccc3OC1(C)N=c1sc(=Cc3cnn(C)c3)c(=O)n12 (centres undefined),nt,0.72,nt,nt,nt,1.8
COc1ccc(C(=O)ON=C(C(N)=O)P(=O)(OC(C)C)OC(C)C)cc1,nt,0.68,nt,nt,nt,4.3
COc1ccc(C2NCc3ccc4c(c3-n3cccc32)OCO4)cc1O (centres undefined),nt,0.74,nt,nt,nt,4.0
CC(Cl)(Cl)C(=NP(=S)(N1CCOCC1)N1CCOCC1)N1CCOCC1,nt,0.62,nt,nt,nt,1.2
NC(=NN=Cc1ccc(O)cc1O)N[N+](=O)[O-],nt,0.65,nt,nt,nt,18

# Source: PubChem
